AmpC inh no det = inhibitors of E. coli AmpC beta-lactamase without detergent. P00811. AmpC nitrocefin hydrolysis, absorbance 480 nm, no detergent; potencies from a single point are estimates. Potency, µM (doses to about 28.7 µM), for the others: at the top dose activity change, negative = inhibition. 71,000 compounds, 1.8% hits; active = falling curve, for most hits resting on a single point; inconclusive = weak or doubtful change; inactive = flat or rising curve; further: % of control where 0% means no effect; about half of the hits show no inhibition at the top dose; a quarter of the inactives give rising signals
Target sequence (P00811 whole entry, looked up): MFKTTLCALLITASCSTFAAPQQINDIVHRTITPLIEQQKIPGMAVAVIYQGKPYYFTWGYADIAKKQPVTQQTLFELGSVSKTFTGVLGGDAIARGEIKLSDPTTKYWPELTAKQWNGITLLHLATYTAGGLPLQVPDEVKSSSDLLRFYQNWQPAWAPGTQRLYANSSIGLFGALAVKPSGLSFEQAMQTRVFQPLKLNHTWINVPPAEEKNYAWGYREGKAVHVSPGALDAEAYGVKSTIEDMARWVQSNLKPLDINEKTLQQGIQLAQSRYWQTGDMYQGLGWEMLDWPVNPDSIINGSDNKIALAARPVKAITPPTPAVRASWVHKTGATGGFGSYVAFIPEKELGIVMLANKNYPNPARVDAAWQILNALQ
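AmpC, 20 mM phosphate pH 7.0; 15 min cpd preinc, RT; start with nitrocefin (800 uM stock); A480 kinetic read, 20 s intervals, 4 min. No-enzyme wells = negative control.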
* = called active by the depositor; & = joins results of further samples; [ ] = dose if it differs, or a comment. Potency means the concentration at half of the fitted maximal effect.

SMILES	AmpC inh no det
COc1ccccc1NC(=O)C1=C(C)Nc2nc(CCCO)nn2C1c1cccnc1 (stereo not drawn)	8%
Cc1ccc(NC(=O)c2ccc3c(c2)N(CC(=O)N2CCCCC2)C(=O)C(C)(C)O3)cc1	115%
COc1ccc(CNC(=O)CN(CC2CCCO2)C(=O)CNS(=O)(=O)c2ccc(F)cc2)cc1 (stereo not drawn)	56%
NC(=O)/N=N/C(N)=O	0%
CCOC(=O)c1ccc(NC(=O)C2C3C=CC(O3)C2C(=O)O)cc1 (stereo not drawn)	14%
Cc1nn(-c2ccc(F)cc2F)c2c1-c1nc(N3CCCC3)ncc1CC2	62%
COCCn1c(SCC(=O)N2CCCc3ccccc32)nc2cccnc21	46%
CCc1nc(N[C@@H](Cc2c[nH]c3ccccc23)C(=O)O)c2oc3ccccc3c2n1	-9%
COc1ccccc1OCc1csc(NC(=O)c2ccco2)n1	-7%
Cc1cc(=O)[nH]c(SCc2cc(=O)n3nc(C)sc3n2)n1	4µM*[single pt active]
CCC(C(=O)Nc1nccs1)c1ccccc1 (stereo not drawn)	-8%
COc1ccccc1C(=O)N(Cc1ccco1)C1CCS(=O)(=O)C1 (stereo not drawn)	8%
Cc1cccc(C(=O)N2CCN(C(=O)c3cccc(C)c3)C(C)C2)c1 (stereo not drawn)	47%
COc1ccc(CNc2nc(-c3cccc(NS(C)(=O)=O)c3)nc3ccccc23)c(OC)c1	16%
COc1ccc(S(=O)(=O)N2CCC(C(=O)Nc3c(F)cccc3F)CC2)cc1	17%
O=C(NCCO)c1ccc2c(c1)S(=O)(=O)c1ccccc1C2=O	-1%
N=C(N)SCCc1ccc(OCc2ccc([N+](=O)[O-])cc2)cc1	16µM*
CCCCc1nnc(NC(=O)CSc2nc(=O)cc(N)n2-c2ccccc2)s1	67%
CSCC[C@H](NC(=O)OC(C)(C)C)C(=O)N1CCC(C(=O)N[C@H](C(=O)O)C(C)C)CC1	-4%
OCCSc1nnc(Nc2ccccc2)s1	-15%
O=C(CCN1C(=O)COc2ccccc21)NCCC1=CCCCC1	27%
CC(NC(=O)Cc1cccs1)c1ccc2c(c1)OCO2 (stereo not drawn)	-16%
N#CCC(=O)NCC1(c2ccccc2)CCCC1	11%
O=C(COC(=O)c1ccccc1NC(=O)c1ccco1)NCc1ccc2c(c1)OCO2	-8%
O=C1COc2ccc(-c3csc(NCC4CCCO4)n3)cc2N1 (stereo not drawn)	33%

The results go on:
SMILES	AmpC inh no det
COC(=O)c1sccc1NC(=O)C1CC2CCC1C2 (stereo not drawn)	4%
O=C(C1CCC1)N1CCc2cc(S(=O)(=O)NCc3ccco3)ccc21	-7%
CCCn1c(CNC(=O)c2ccccc2)nc2ccccc21	-5%
CC1CCCCN1C(=O)CSc1nc2cc3c(cc2c(=O)n1Cc1ccc2c(c1)OCO2)OCO3 (stereo not drawn)	53%
COc1ccc(CCNC(=O)Cn2cnc3c2c(=O)n(C)c(=O)n3C)cc1OC	-5%
CCOc1ccc(C(=O)CCN2CCCCC2)cc1	0%
CN1C(=O)c2ccc(C(=O)NC3CCCCC3)cc2C1=O	4%
CCn1c(=O)c(C(=O)Nc2cccnc2)c(O)c2ccccc21	93%
CCC(=O)Nc1ccc(N2CCN(Cc3ccccc3F)CC2)cc1	4%
CCn1c(=O)c2cc(C(=O)NCCN3CCOCC3)sc2c2ccccc21	4µM*[single pt active]
CC1CCCCN1S(=O)(=O)c1ccc(NC(=O)c2cccs2)cc1 (stereo not drawn)	-13%
Cc1ccc(NCN2C(=O)C3C4C=CC(C4)C3C2=O)cc1 (stereo not drawn)	-3%
Cc1ccc(-n2ncc3c(=O)[nH]c(SCC(=O)N4CCOCC4)nc32)cc1	2%
O=C(CCSc1ccc(F)cc1)Nc1ccc(-n2cnnn2)cc1	-19%
Cc1nc(Nc2nc(=O)c3ccccc3n2C)nc2c(C)cccc12	2%
Cc1ccc(-c2c3c(=O)n(C)c(=O)n(C)c3cn2-c2ccccc2O)cc1	10%
CC1(C)CC(=O)C2=C(C1)OC(/N=C/N1CCOCC1)=C(C#N)C2c1ccccc1 (stereo not drawn)	86%
CC1(C)C(c2ccccc2)=NC(c2cccnc2)N1O (stereo not drawn)	3%
Cc1ccc(NC2c3ncccc3C(=O)N2C2CCCCC2)cc1 (stereo not drawn)	64%
COc1ccc2c(C)cc(C)nc2n1	-16%[5.75 µM]
CC(=O)Nc1cc(C(=O)c2ccccc2)ccc1N1CCOCC1	11%
O=C(c1ccco1)N1CCC[C@@]2(CCN(c3cccc(-c4ccccc4)c3)C2)C1	80%
Cc1ccc2cc(C(c3nnnn3C(C)(C)C)N3CCCC3)c(=O)[nH]c2c1C (stereo not drawn)	26%
COC(=O)c1cccc(OC(N)=O)c1	-6%
CC1CC(C)(C)NC(=S)S1 (stereo not drawn)	1%

2 compounds drawn at random from those above, as already listed:
SMILES	AmpC inh no det
CCn1c(=O)c(C(=O)Nc2cccnc2)c(O)c2ccccc21	93%
N#CCC(=O)NCC1(c2ccccc2)CCCC1	11%

More structures.
SMILES	AmpC inh no det
Cc1ccccc1C(=O)c1cccn1CC(=O)NCc1ccco1	6%
COc1ccc(N2C(=O)CSC23C(=O)N2CCCc4cccc3c42)cc1 (stereo not drawn)	28%
COc1ccc(CN2C(=O)CCC2(C)C(=O)NC2CCCCC2)c(OC)c1 (stereo not drawn)	34%
O=C(CCCn1c(=O)c2sccc2n(Cc2cc(=O)n3ccccc3n2)c1=O)NCc1ccco1	4µM*[single pt active]
CCOC(=O)c1sc2nccc(N(C)C)c2c1N=CN(C)C	0%
CCN1C[C@]2(COC)CC[C@H](O)[C@@]34[C@@H]5C[C@H]6[C@@H](OC)[C@H]5[C@](O)(C[C@@H]6OC)[C@@](O)([C@@H](OC)[C@H]23)[C@@H]14	-5%[12.8 µM]
C/C(CCc1c[nH]c2ccccc12)=N\O	-6%
CC(=O)Nc1ccc(OCC=C(Cl)Cl)cc1	4%
CCCCOc1ccc(OCCNS(=O)(=O)N(C)C)cc1	20%
CC(=O)O[C@@H]1CC[C@]2(C)C(=C[C@@H]([C@@H]3C=C4C[C@@H](OC(C)=O)CC[C@]4(C)C4=C3[C@H]3C[C@@H]5O[C@@]6(CC[C@H](C)CO6)[C@@H](C)[C@@H]5[C@@]3(C)CC4)C3=C2CC[C@@]2(C)[C@H]4[C@@H](C)[C@]5(CC[C@H](C)CO5)O[C@@H]4C[C@H]32)C1	50%[5.75 µM]
CCOC(=O)c1ccc2c(c1)n(CCO)c(C)[n+]2CC	-11%
CCN(CC)CCNC(=O)Cc1nn(CC)c(=O)c2ccccc12	-9%
CC(=O)N1CC2(CC2)CC1c1ccccc1 (stereo not drawn)	5%
O=C(O)CCC(=O)NCCn1c(-c2ccccc2)csc1=Nc1ccccc1	16%
CS(=O)(=O)N1CCC(C(=O)Nc2cccc(C(F)(F)F)c2)CC1	36%
COc1ccc(S(=O)(=O)NCC2CCC(C(=O)N3CCC4(CC3)OCCO4)CC2)cc1 (stereo not drawn)	60%
CCOC(=O)c1c(N)sn(-c2ccccc2)c1=S	-2%
CCCn1c(SCC(N)=O)nnc1-c1ccco1	-12%
CCn1c(SCC(=O)NCCc2ccccc2)nnc1-c1cccs1	-4%
CCCCCn1c(SCCC(C)C)nc2c1c(=O)[nH]c(=O)n2C	12%
CN1CC[C@H](CN2c3ccccc3Sc3ccccc32)C1	16%[5.75 µM]
Cc1noc(C)c1C(=O)N1CCC[C@@]2(CCN(CC(C)C)C2)C1	25%
COC(=O)c1ccccc1NC(=O)C12CCC(C)(C(=O)O1)C2(C)C (stereo not drawn)	26%
Cc1cc(C(=O)NC2CCCC2)on1	6%
COC(=O)c1cccc(Nc2nc3ccccc3nc2C)c1	107%

Gathered by group: the compounds so far with an aryl thioether with sulfur outside any ring.
SMILES	AmpC inh no det
COCCn1c(SCC(=O)N2CCCc3ccccc32)nc2cccnc21	46%
Cc1cc(=O)[nH]c(SCc2cc(=O)n3nc(C)sc3n2)n1	4µM*[single pt active]
CCCCc1nnc(NC(=O)CSc2nc(=O)cc(N)n2-c2ccccc2)s1	67%
OCCSc1nnc(Nc2ccccc2)s1	-15%
CC1CCCCN1C(=O)CSc1nc2cc3c(cc2c(=O)n1Cc1ccc2c(c1)OCO2)OCO3 (stereo not drawn)	53%
Cc1ccc(-n2ncc3c(=O)[nH]c(SCC(=O)N4CCOCC4)nc32)cc1	2%
O=C(CCSc1ccc(F)cc1)Nc1ccc(-n2cnnn2)cc1	-19%
CCCn1c(SCC(N)=O)nnc1-c1ccco1	-12%
CCn1c(SCC(=O)NCCc2ccccc2)nnc1-c1cccs1	-4%
CCCCCn1c(SCCC(C)C)nc2c1c(=O)[nH]c(=O)n2C	12%

More records follow.
SMILES	AmpC inh no det
CCCN(c1ccc(OCC)cc1)c1ncnc2nc[nH]c12	1%
O=C(CSc1nnnn1C1CCCCC1)NCc1ccc2c(c1)OCO2	2%
CCOC(=O)c1c(NC(=O)c2ccc(S(=O)(=O)N3CCOCC3)cc2)sc2c1CCN(C)C2	116%
C=CCNC(=O)c1cc(-c2ccc(Br)cc2)on1	-10%
CCCOC(=O)Nc1nc2ccccc2o1	-3%
CCOc1ccc(CCNC(=O)CN2CCN(Cc3ccc(F)cc3)C2=O)cc1OCC	99%
COc1ccc(NC(=O)Nc2ccc(C)cc2OC(F)F)cc1OC	19%
COc1ccccc1N1C(=O)NC(=O)C2(Cc3cc(C)ccc3N(C)C2)C1=O (stereo not drawn)	0%
Nc1cc(C(=O)c2cccs2)ccc1Cl	-8%
NC(N)=NC(N)=Nc1ccccc1	-1%&-2%
COc1ccc(OC)c(-c2cc(C(=O)Nc3c(C)nn(Cc4ccccc4Cl)c3C)no2)c1	41%
Cc1ccc(CC(=O)N2CCC(c3nc4c(nnn4Cc4ccccc4)c(=O)[nH]3)CC2)cc1	115%
Cn1c(=O)c2c(SC3CCCC3)nc(C3CC3)nc2n(C)c1=O	3%
CCOc1ccc(C2/C(=C(\O)c3ccc(OC)c(OC)c3)C(=O)C(=O)N2c2cc(C)on2)cc1OC (stereo not drawn)	-16%
COc1ncc2nc(-c3cn(C)c4ccccc34)c(=O)n(C[C@H]3CCCO3)c2n1	7%
CC(C)c1cc(C(N)=O)c(NC(=O)C2CCC2)s1	4%
C=CC1CC=CCC1 (stereo not drawn)	-14%
CCCn1cc(S(=O)(=O)CC(=O)Nc2ccc(OC)cc2OC)c2ccccc21	-1%
O=C(c1ccco1)N1CCN(c2ncccn2)CC1	4µM*[single pt active]
CC(=O)[C@H]1[C@H]2[C@H](C(=O)[C@@H]3OC[C@H]2O3)[C@@H]2c3ccccc3C=CN12	56%
Cn1cc(CC(=O)NCCCN2CCCC2=O)c2ccccc21	10%
O=C(Nc1cccc(F)c1)N1CCCC2(CCN(C(=O)c3cnccn3)CC2)C1	-1%
COCCNC(=O)c1ccc2c(c1)nc(C)n2-c1cccc(F)c1	2%
COc1cc(C2C(C#N)=C(N)Oc3cc(O)ccc32)cc2c1OCO2 (stereo not drawn)	-18%
CCCS(=O)(=O)N1CCCC(C(=O)NCc2cccnc2)C1 (stereo not drawn)	-1%

More compounds.
SMILES	AmpC inh no det
CCCn1c(-c2ccc(F)cc2)nc2c(NCCCCN(CC)CC)nc(C)nc21	45%
O=C(O)C(=Cc1ccnc2ccccc12)C(=O)O	0%[5.75 µM]
CCOCC(=O)Nc1nnc(C)s1	-14%
NS(=O)(=O)c1ccc(N=Nc2c[nH]c(=O)c(O)c2)cc1	5%[5.75 µM]
Nc1ccc(N2CCCCCC2)cc1	2%
CCOC(=O)c1ccccc1NC(=O)CSc1nc2ccccc2o1	16%
COc1cc(OC)nc(NC(=O)CSc2nc3ccccc3[nH]2)n1	-1%
CN(C)CC#CCOCCOCCC#N	3%
CCOC(=O)c1ccccc1NC(=O)Cn1cnc2c(cnn2-c2ccc(F)cc2)c1=O	8%
COc1ccc(Oc2ncc3nc(-c4ccccc4)c(=O)n(Cc4cccs4)c3n2)cc1	-19%
Cc1cc(N2CCCC(C(=O)Nc3ccc4c(c3)CCC4)C2)n2ncnc2n1 (stereo not drawn)	125%
CC1CCN(C(=O)CSc2nnc(-c3cccnc3)n2C2CCCCC2)CC1	116%
CCCCCC1CCC(C(=O)O)CC1 (stereo not drawn)	0%
CCOC(=O)N1CCN(S(=O)(=O)c2cccc3cccnc23)CC1	7%
CC(C)Sc1nc2c(c(=O)n(C)c(=O)n2C)n1C	3%
CC(C)C(c1nnnn1Cc1ccco1)N1CCN(c2nc3ccccc3s2)CC1 (stereo not drawn)	60%
Cc1ccc2c(c1)c1ncn(CCC3=CCCCC3)c(=O)c1n2C	4%
CN1CCn2c1nc(N1CCOCC1)nc2=O	2%
CCN1CCCC(OC(=O)Nc2ccccc2)C1 (stereo not drawn)	-17%
CC1(C)Cc2nc3sc4c(=O)n(CC(=O)NCc5ccco5)cnc4c3cc2CO1	24%
COc1ccccc1NC(=O)CN1CCN(CC(=O)Nc2ccc3c(c2)OCCO3)CC1	80%
CCN(c1cccc(C)c1)S(=O)(=O)c1ccc2[nH]c(=O)c(=O)[nH]c2c1	-16%
CCc1c(C#N)c(SCc2c(C)noc2C)nc2c1C(=O)CC(C)(C)C2	11%
Cc1ccc(S(=O)(=O)NC2=NCCC2)cc1	-9%
COC(=O)N1CCC2(CC1)CCN(c1ncccn1)CC2	8%
Cc1ccc(-c2nnn(CC(=O)N(CC(=O)NC3CCCCC3)c3cnc4ccccc4c3)n2)o1	95%
O=C(COC(=O)Cn1cnc2ccccc21)Nc1ccc2c(c1)OCCO2	-4%
CCn1c(CNC(=O)c2ccc(OC)c(OC)c2)nnc1SCC(=O)c1ccc(OC)cc1	82%
Cc1ccc(S(=O)(=O)N(C)CC(=O)N2CCOCC2)cc1	12%

A portion of the library; count on the stated rates, not on these rows.
